HSD17B inhib: HSD17B dehydrogenase inhibition; Q99714; recombinant HSD17B10, NADH fluorescence kinetic; many of its hits are not listed in these tables; Potency, µM (series often up to 57.1 µM), for inactives: at the top dose activity change, negative = inhibition, usual class: inhibitors; hit rate 7.6% among 75,000; active = well fitted inhibition curve with a large enough effect; inconclusive = small, poorly fitted or top-dose-only effect; inactive = no such curve, though single readings can be large or run the other way;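 also: the protocol describes HADH2 (HSD17B10) and not the HSD17B4 of the title; nearly all actives have a fitted effect of over 70% in size; most hits overshoot -100% by far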
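Enzyme plus compound, 15 min room temperature; substrate mix added (NAD+ 1 mM, beta-hydroxybutyryl-CoA 90 uM final); plates read kinetically for NADH fluorescence. HADH2 was His-tagged, E. coli-derived, 20 nM.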
Active calls of the source: *; ? = inconclusive; & = joins results of further samples; [ ] = dose if it differs, or a comment. % is scaled to controls: 0 for no effect and ±100 for the full control effect; potency is read from the fitted curve at half-maximal effect. Only part of the results is shown; count on the stated rates, not on these rows.

SMILES	HSD17B inhib
CC(Cc1ccccc1)[n+]1cc(/N=C(\[O-])N(C)C)on1 (centres undefined)	-21%
Clc1ccc2c(N3CCNCC3)ccnc2c1	5%
CN1C(=O)N(C)C(=O)C2(Sc3ccccc3C2=O)C1=O	2%
Cc1cc(Cl)ccc1OC(C)C(=O)O (centres undefined)	-5%
Cc1ccc(O)cc1 (tested in a mixture with another compound)	2%[11.4 µM]
Cc1nc2ccccc2c(=O)n1-n1cnnc1	9%
CCCCn1cnc2cc(NCc3cccc(OC)c3O)ccc21	32µM*
CCCCCCn1c(=O)c(C(=O)Nc2c(C)n(C)n(-c3ccccc3)c2=O)c(O)c2ccccc21	2%
NNCc1cccc(O)c1	-9%
CNC(=O)Oc1cccc2c1OC(C)(C)C2	5%
C[C@]12CC[C@@H]3[C@H](CCC4=CC(=O)CC[C@]43C)[C@]1(O)CC[C@@]2(O)C(=O)CO	-3%[11.4 µM]
CCCCn1c(O)c(C(CC)=NCc2ccc3c(c2)OCO3)c(=O)[nH]c1=O	-2%
CCC1(CC)C(=O)C=CNC1=O	4%
O=C(c1ccccc1)c1cn(CC(=O)N2CCOCC2)c2ccccc12	2%
Cc1ccc(C2(O)CCN3CCCCC32)cc1 (centres undefined)	4%
CCOc1cc(C(=O)N2CCC3(CC2)OCCO3)cc(OCC)c1OCC	-2%
Cc1ccc(N=C=O)cc1N=C=O	0%
NC(N)=Nc1ccc2[nH]c3c(c2c1)C[C@]1(O)[C@@H]2Cc4ccc(O)c5c4[C@]1(CCN2CC1CC1)[C@@H]3O5	-21%
CCC(=NCCCO)c1c(O)n(-c2ccc(OC)cc2)c(=O)[nH]c1=O	-6%
CCC(=NCC1CCCO1)c1c(O)[nH]c(=O)[nH]c1=O (centres undefined)	-2%
O=C(C(Cc1ccccc1)NS(=O)(=O)c1ccc(F)cc1)N1CCC2(CC1)OCCO2 (centres undefined)	4%
CCCN(CCC)[C@@H]1CCc2ccc(O)cc2C1	-10%&7%&-3%
COc1ccc2c(c1OC)C(=O)O[C@H]2[C@H]1c2cc3c(cc2CCN1C)OCO3	-2%[25.6 µM]
O=C(O)CCl	1%
O=C(Oc1ccccc1)N1CCC2(CCN(Cc3nccs3)CC2)CC1	0%
CN(C=O)CP(=O)(O)CN(C)C=O	-3%
CCCCn1c(O)c(C(C)=Nc2ccc(OCC)cc2)c(=O)[nH]c1=O	-5%
N[C@@H](Cc1c[nH]c2ccccc12)c1nnc(SCc2ccc(Cl)cc2)o1	-8%
N#CCCCCC#N	-2%
C[C@H]1CN(C2CCC(C#N)(c3ccc(F)cc3)CC2)CC[C@@]1(C(=O)O)c1ccccc1 (some centres undefined)	0%[25.6 µM]
C#CCOS(=O)OC1CCCCC1Oc1ccc(C(C)(C)C)cc1 (centres undefined)	?
Clc1cccc(C(Cl)(Cl)Cl)n1	0%
COc1ccc2c(c1)CC1(CN2C)C(=O)NC(=O)N(c2ccc(C)cc2)C1=O (centres undefined)	-21%
CNCCc1c[nH]c2ccc(O)cc12	-7%&4%
CCCc1nc2ccccc2c(=O)n1-c1cccc(OC)c1	11%
Cc1[nH]c2ccc(O)cc2c1CCN	?
CC(=O)Oc1c2c(c(CC=C(C)C)c3c1C(=O)C1=CC4CC5C(C)(C)OC(C/C=C(\C)C(=O)O)(C4=O)[C@]15O3)OC(C)(CCC=C(C)C)C=C2 (some centres undefined)	10µM*
S=c1[nH]c2ccccc2[nH]1	3%
Fc1ccc(C(OCCN2CCN(C/C=C\c3ccccc3)CC2)c2ccc(F)cc2)cc1	-28%
Oc1ccc2c3c1OC1C(O)CC[C@]4(O)C(C2)N(CC2CCC2)CC[C@]314 (some centres undefined)	3%

Some of the entries above in another layout:
| Compound | HSD17B inhib |
| --- | --- |
| CC(=O)Oc1c2c(c(CC=C(C)C)c3c1C(=O)C1=CC4CC5C(C)(C)OC(C/C=C(\C)C(=O)O)(C4=O)[C@]15O3)OC(C)(CCC=C(C)C)C=C2 (some centres undefined) | 10µM* |
| CCCN(CCC)[C@@H]1CCc2ccc(O)cc2C1 | -10%&7%&-3% |

(continued)
SMILES	HSD17B inhib
CCc1nc(CNC(=O)c2cc(OC)c(OC)c(OC)c2)no1	25µM*
C=CCN1C(=O)C2(C(C(=O)OCC)=C(N)Oc3ccccc32)C2=C1CCCC2=O (centres undefined)	7%
C/C(=C\C=C/[C@@H](C)C(=O)O)[C@H]1CN[C@H](C(=O)O)[C@@H]1CC(=O)O	-9%
CCCBr	0%
COc1cc2c(cc1O)C(CCc1ccc(Cl)cc1)N(C)CC2 (centres undefined)	-6%
COC(=O)c1cc(C(O)(C(=O)OC)C(F)(F)F)c(/N=C/N(C)C)s1 (centres undefined)	-6%
O=C(c1ccco1)N1CCC2(CC1)CN(Cc1ccncc1)C2	3%
Oc1ccc2c3c1O[C@H]1c4oc5ccccc5c4C[C@]4(O)[C@H](C2)N(CC2CC2)CC[C@@]314	-6%&-4%
CC1CC(O)[C@]2(O)[C@]13CC(=O)OC[C@@]2(C)[C@@](C)(O)C(=O)C3 (some centres undefined)	2%
COC(=O)C(O)(c1c(C)[nH]n(-c2ccccc2)c1=O)C(F)(F)F (centres undefined)	-23%
O=C(NC1(C(F)(F)F)Oc2ccccc2O1)N1CCC2(CC1)OCCO2	?
Cc1cc(Cl)ccc1OCC(=O)N1CCN(C)CC1	-4%
COc1ccc(CC2C(=O)NC(=O)NC2=O)c(OC)c1	-3%
CC[C@H](Oc1ccc(Cl)cc1)C(=O)OC1C[C@H]2CC[C@@H](C1)N2C (some centres undefined)	-11%
CCCCCn1c(=O)c(C(=O)Nc2ccncc2)c(O)c2ccccc21	1%
C[C@@H]1O[C@H](C[N+](C)(C)C)CS1	-1%
COc1c2c(cc3c1OCO3)C13C=CC(OC)CC1N(C2)CC3O (centres undefined)	2%
NC1(C(=O)O)CCCC1	6%
CC(=O)OC1=CC2=CC[C@H]3[C@H]4CCC(=O)[C@@]4(C)CC(=O)[C@]3(S)[C@]2(C)CC1	-7%[11.4 µM]
Cn1c(O)c(C=NC2CC3CCC2(C)C3(C)C)c(=O)[nH]c1=O (centres undefined)	-2%

Individual results from the list:
Entry of `C[C@]12CC[C@@H]3[C@H](CCC4=CC(=O)CC[C@]43C)[C@]1(O)CC[C@@]2(O)C(=O)CO` under HSD17B inhib: -3%[11.4 µM]
Entry of `Clc1cccc(C(Cl)(Cl)Cl)n1` under HSD17B inhib: 0%
Entry of `S=c1[nH]c2ccccc2[nH]1` under HSD17B inhib: 3%
Entry of `O=C(C(Cc1ccccc1)NS(=O)(=O)c1ccc(F)cc1)N1CCC2(CC1)OCCO2` (centres undefined) under HSD17B inhib: 4%

The list continues:
SMILES	HSD17B inhib
O=C(c1ccc2c(c1)ncn2C1CCCCCC1)N1CCC2(CC1)OCCO2	0%
O=C(c1ccco1)N1CCC[C@@]2(CCN(Cc3ccncc3)C2)C1	-7%
O=C(Oc1ccccc1)N1CCC[C@@]2(CCN(Cc3ccccc3)C2)C1	6%
CCN(CC)S(=O)(=O)c1ccc(N=Cc2c(O)n(-c3ccccc3)c(=O)[nH]c2=O)cc1	?
CC(C)(Cl)Cl	3%
Fc1ccc(C(OCCN2CCN(CCCc3ccccc3)CC2)c2ccc(F)cc2)cc1	-15%
C[C@@]12CC[C@H](O)C[C@@H]1CC[C@H]1[C@@H]2C[C@@H](O)[C@]2(C)[C@@H](C3=CC(=O)OC3)CC[C@]12O	4%[25.6 µM]
CC(=O)OC1C[C@@]2(C)C(c3ccoc3)C[C@H]3O[C@@]32[C@@]2(C)C(=O)C(O)=C3C(C)(C)C(=O)C=C[C@]3(C)C12 (some centres undefined)	-2%
CN1[C@H]2CC(=O)C[C@@H]1[C@@H](O)C2	0%[25.6 µM]
CN1CC[C@@]2(c3cccc(O)c3)Cc3nc4ccccc4cc3C[C@H]2C1	12%
COc1ccc(NC(=O)N2CCCC3(CCN(C(=O)Oc4ccccc4)CC3)C2)cc1	1%
N#CCCC#N	0%
NC(=O)OCCSc1nnc(-c2cccc(C(N)=S)c2)o1	-2%
Cc1ccc(O)c(CN2CCN(c3ccccc3)CC2)c1	-4%
CCn1c(O)c(C=NCc2cccs2)c(=O)[nH]c1=O	5%
Cc1cccc(-n2c(C)nc3cc(C(=O)N4CCC5(CC4)OCCO5)ccc32)c1	1%
CC(CO)NC(=O)C1C=C2c3cccc4[nH]cc(c34)C[C@H]2N(C)C1 (some centres undefined)	32µM*
NC(=O)CN1C[C@@H](O)CC1=O	2%
Oc1cc(Cl)c(Cl)c(Cl)c1	1%
COC(=O)[C@]1(C)CC[C@@]2(C)CC[C@@]3(C)C4=CC=C5C(=CC(=O)C(O)=C5C)[C@@]4(C)CC[C@@]3(C)C2C1 (some centres undefined)	-5%
CC1(C)C2CC=C(CN3CCC(O)CC3)C1C2 (centres undefined)	6%
CCSC(=O)N1CCCCCC1	0%
Cn1cc(C(=O)C(=O)N[C@H]2CN3CCC2CC3)c2ccccc21	-3%
C[C@@H]1OC=C2[C@@H](O)[C@H]3O[C@H]3C(=O)[C@@]23[C@H]1[C@H]1C2=C([C@@H](O)[C@H]4O[C@@H]4C2=O)[C@@H]3O[C@@H]1C	0%[11.4 µM]
O=C1C=C2C=C[C@H]3C[C@@]2(O1)[C@H]1CCCCN31	-5%[25.6 µM]
C=CC(=C)C	-1%
O=C1CCCC2=C1C(c1cccnc1)Nc1ccccc1N2 (centres undefined)	3%
CCCc1cc2c(n1Cc1ccco1)C(C)C1CN(C(=O)c3ccccc3)C(C)(C(=O)OC)C21 (centres undefined)	?
OC1(c2ccc(F)cc2)CC2CCC(C1)N2Cc1nnnn1C1CCCC1 (centres undefined)	-4%
COc1cc2c3c(c1OC)-c1cc(O)ccc1CC3NCC2 (centres undefined)	32µM*
CC1=CC(C)C(COC(N)=O)(COC(N)=O)C(C)C1 (centres undefined)	-4%
Cc1nn(-c2ccccc2)c2c1CC1(C(=O)N(C)C(=O)N(C)C1=O)C1CCCCN21 (centres undefined)	7%
CN1CCN(c2nc3ccccc3c(=O)n2-c2ccccc2)CC1	7%
N[C@H](CCCCCP(=O)(O)O)C(=O)O	4%&5%
CN(C)CCc1nc2ccccc2c(=O)n1-c1ccccc1	7%
CCOC(=O)c1c(C)n(Cc2ccco2)c2ccc(OC)cc12	-18%
CC(C)(O)[C@@H]1C2OC(=O)[C@@H]1[C@]1(O)C[C@H]3O[C@]34C(=O)O[C@H]2[C@]14C	-3%
C[C@@]12CC[C@H]3[C@@H](CC[C@]4(O)C[C@H](O)CC[C@@]34C=O)[C@]1(O)CC[C@@H]2C1=CC(=O)OC1	-2%[25.6 µM]
CC(C)CC12CN3CCN(CC(C3)C1O)C2 (centres undefined)	11%
Cc1c(C(=O)c2cccc3ccccc23)c2cccc3c2n1[C@H](CN1CCOCC1)CO3	-1%
N[C@@H](Cc1c[nH]c2ccccc12)c1nnc(SCc2ccccc2)o1	-1%
C=CCCl	2%
CCCCn1c(=O)c(C(=O)Nc2cnccn2)c(O)c2ccccc21	2%
Cc1ccc(S(=O)(=O)N(C)CCCC(=O)N2CCN(c3ccccn3)CC2)cc1	?
C=CC(=O)OCCN(C)C	3%
CC1CCC(NCCc2ccc3c(c2)OCO3)CC1 (centres undefined)	6%
CC(C)(C)C(O)(CCc1ccc(Cl)cc1)Cn1cncn1 (centres undefined)	-8%
CC(=NCCN1CCOCC1)c1c(O)n(-c2ccccc2C)c(=O)[nH]c1=O	-8%
O=C(O)C[C@H]1NCc2cc3ccccc3nc21	-1%[11.4 µM]
COc1cc(OC)c(OC)cc1CNCCc1ccc(OC)c(OC)c1	16%
CCN(CC)Cc1c[nH]c2ccccc12	-24%
CN[C@@H]1C[C@H](c2ccc(Cl)c(Cl)c2)c2ccccc21	2%
O=C(O)CP(=O)(O)c1ccc(Cl)cc1	-1%
O=C(Nc1ccccc1)N1CC[C@@]2(CCCNC2)C1	-2%
COc1ccc(C2C(C(=O)N3CCC4(CC3)OCCO4)CC(=O)N2c2ccc(OC)cc2)cc1 (centres undefined)	4%
CCCNS(=O)(=O)c1ccc(OCC(=O)N2CCN(Cc3ccccc3)CC2)cc1	-6%
CC(C)CN1CC2(CCN(C(=O)Oc3ccccc3)CC2)C1	-1%
Cc1cc(C)n2c(Br)c(CN3CC4CC(C3)c3cccc(=O)n3C4)nc2n1 (centres undefined)	1%
NC[C@H](CP(=O)(O)O)c1ccc(Cl)cc1	-5%
COc1cc(-c2ccc(N)c(OC)c2)ccc1N	-27%

Of the compounds above, three have a cyano group:
SMILES	HSD17B inhib
N#CCCCCC#N	-2%
C[C@H]1CN(C2CCC(C#N)(c3ccc(F)cc3)CC2)CC[C@@]1(C(=O)O)c1ccccc1 (some centres undefined)	0%[25.6 µM]
N#CCCC#N	0%

Pulled one by one from the list above, 7 records:
SMILES	HSD17B inhib
Cc1cc(C)n2c(Br)c(CN3CC4CC(C3)c3cccc(=O)n3C4)nc2n1 (centres undefined)	1%
CCCNS(=O)(=O)c1ccc(OCC(=O)N2CCN(Cc3ccccc3)CC2)cc1	-6%
CC(C)(C)C(O)(CCc1ccc(Cl)cc1)Cn1cncn1 (centres undefined)	-8%
CCN(CC)Cc1c[nH]c2ccccc12	-24%
COc1ccc(C2C(C(=O)N3CCC4(CC3)OCCO4)CC(=O)N2c2ccc(OC)cc2)cc1 (centres undefined)	4%
C=CCCl	2%
CC(C)CN1CC2(CCN(C(=O)Oc3ccccc3)CC2)C1	-1%

Screening results deposited in PubChem by National Center for Advancing Translational Sciences (NCATS).
